PrP UTR inh: inhibition of PrP 5' UTR reporter expression | AID 488862, 2010 | 340,000 tested, 0.35% active | cell-based PrP 5' UTR mRNA reporter, plate reader | inhibition, % (concentration not given with the values);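 active = every replicate at 50% or more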;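 note: 0 = median of the neutral control wells; tested in H4 reporter cells; numbers are from one replicate; inactives centre near -14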
Bead autofluor: compound fluorescence in toxin protease inhibitor counterscreen; AID 624483; 360,000 tested, 3.1% active; compound autofluorescence counterscreen, microsphere flow cytometry; hits give high values; fluorescence intensity (concentration not given with the values);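 active = at least 3 SD above the mean of all compounds, about 16000 in these data; inconclusive = too few beads counted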;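 note: 100 nL of 1 mM stock went into each well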
ugtP null kill: growth inhibition of ugtP-null S. aureus, primary screen, RN4220 ugtP deletion, OD600 | growth inhibition, % (concentration not given with the values) | 16 h; some inactives read as strong as hits | 330,000 tested, 0.54% active;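 active = z-score under -3 and OD600 up to 0.15 on both plates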;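 note: plate controls were untreated wells for no effect and antibiotic for full effect; wells of about 80 µL received 100 nL stock; the first replicate is given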
BJeLR viability: MLPCN primary cell-based screen for lethality selective to Ras in HRASV12 cells; BJeLR (HRASV12) viability, CellTiter-Glo ATP luminescence, 48 h; reference of the scale not given here; inhibition, % (no concentration beside the values); 300,000 tested, 0.17% active; AID 1554, 2009;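 active = replicate mean above 50%; inconclusive = above 50% but judged a plate artefact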;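 note: 50 nL library stock added to about 25 µL; numbers are from one replicate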
Sa RN4220 lethal: growth inhibition of S. aureus RN4220, primary screen, OD600. 16 h. AID 1259311, 2017. 330,000 tested, 0.33% active. inhibition, % (no concentration beside the values);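 active = z-score of -3 or lower and OD600 up to 0.18 on both plates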;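 note: plate controls were untreated cells for no effect and reference antibiotic for full effect; stock transfer was 100 nL into about 80 µL; one replicate is shown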
Mtb hypoxia inh: PubChem AID 1159583; M. tuberculosis hypoxia-regulated fluorescent reporter, fluorescence; fluorescence inhibition, % (no concentration beside the values); 300,000 tested, 0.1% active;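 active = 35 to 45% if threefold the growth effect, above 45% if 1.5-fold the growth effect; inactive = the rest, general growth blockers included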;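 note: wells of about 50 µL received 100 nL stock; 0% = vehicle wells and 100% = reference inhibitor wells; whole bacteria with a GFP reporter of the hypoxia response; strong numbers were not always called active; many hits fall short of the cut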
Mtb hypoxia inh growth: recorded beside Mtb hypoxia inh, whose call it bears; growth inhibition, %; measured here: M. tuberculosis growth (absorbance);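 0% = vehicle and 100% = reference antibiotic; read after six days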
Active calls of the source: *; ? = inconclusive; / = no result given; & = joins results of further samples.

SMILES	PrP UTR inh	Bead autofluor	ugtP null kill	BJeLR viability	Sa RN4220 lethal	Mtb hypoxia inh	Mtb hypoxia inh growth
COc1ccc(NC(=O)CCC(=O)Nc2nnc(C3CCCCC3)s2)c(OC)c1	-13	6213	9	-9	4.0	6	-2
O=C(CN1C(=O)NC2(CCCC2)C1=O)NCCc1ccc(Cl)cc1Cl	-9	/	2	/	5.8	10	1
NC(=O)c1ncc(C(F)(F)F)cc1Oc1cccc(F)c1	-35	2118	11	-1	4.3	/	/
Cc1ccc(SCc2nc3ccccc3[nH]2)cc1	-111	20672*	6	1	-2.1	4	8
CC(=O)OC1CC(C)(C)N(OC(=O)c2ccccc2)C(C)(C)C1	12	2462	9	5	8.6	/	/
CCC(C)NC(=O)c1cc(Sc2nnc(C)s2)nc2ccccc12 (configuration not stated)	/	/	8	-3	0.8	0	-2
Cc1nc(SCN2C(=O)c3ccccc3C2=O)n[nH]1	-22	3709	-1	-1	2.1	8	7
O=C(O)CCCC(=O)Nc1ccc2c(c1)oc1ccccc12	-8	4225	-4	0	-3.3	-8	17
O=c1c2[nH]c3ccc(F)cc3c2ncn1CC1CCCO1 (configuration not stated)	-9	5069	-2	10	2.9	13	-5
CCOC(=O)C1CCN(S(=O)(=O)c2cc3c4c(c2)C(C)C(=O)N4CCC3)CC1 (configuration not stated)	-15	5023	3	4	2.6	13	6
c1ccc(CN2CCN(c3nc4ccccc4n4cnnc34)CC2)cc1	-16	5753	7	9	4.3	2	15
Cc1ccc(NC(=O)CSc2nc(=O)n(CCN(C)C)c3c2CCCC3)cc1Cl	-2	?	-4	4	0.6	5	3
COc1ccc(C(=O)O)cc1S(=O)(=O)NCCc1ccccn1	0	4401	4	5	0.8	12	4
CN=C(NC1CCCCC1)c1ccc(Cl)cc1	-17	2545	9	-20	0.6	11	10
CCCc1nc(-c2cc3cc(C)ccc3[nH]c2=O)no1	-7	4401	-11	8	-3.0	-2	4
OCCN=Cc1c(O)[nH]c2ccccc12	-31	2953	-13	0	-8.5	11	1
COc1ccc(CCNC(=O)Cn2c([N+](=O)[O-])cnc2C)cc1OC	-11	3820	9	2	0.4	-2	6
Cc1ccc(/C(O)=C2/C(=O)C(=O)N(Cc3ccco3)C2c2cccs2)cc1 (configuration not stated)	-27	11030	-5	-16	0.9	1	2
CN(C)CCCNc1cc(C(C)(C)C)nc2c(-c3ccccc3)cnn12	-82	/	-9	-6	-17	18	17
COc1ccc(N(CC(=O)N2CCN(C)CC2)S(=O)(=O)c2cc(C)ccc2OC)cc1Cl	-24	4928	-6	-5	1.7	11	7
Cc1ccccc1OC(C)C(=O)NCCCN1CCOCC1 (configuration not stated)	-13	4350	6	-14	0.3	0	-6
Cc1cc(S(=O)(=O)N2CCCCC2)ccc1OCC(=O)N1CCOCC1	-5	4579	-4	9	-3.3	1	-1
C=CCN1CN(S(=O)(=O)c2cccc(Cl)c2)c2nc3ccccc3nc21	7	6033	1	-2	1.2	-2	5
Cc1ccccc1N1CCN(C(=O)[C@@H]2CCCN2C2=NS(=O)(=O)c3ccccc32)CC1	-10	6501	11	/	4.4	4	-1

Seven entries picked at random from the list so far, as already listed:
SMILES	PrP UTR inh	Bead autofluor	ugtP null kill	BJeLR viability	Sa RN4220 lethal	Mtb hypoxia inh	Mtb hypoxia inh growth
Cc1ccc(NC(=O)CSc2nc(=O)n(CCN(C)C)c3c2CCCC3)cc1Cl	-2	?	-4	4	0.6	5	3
O=C(O)CCCC(=O)Nc1ccc2c(c1)oc1ccccc12	-8	4225	-4	0	-3.3	-8	17
COc1ccc(C(=O)O)cc1S(=O)(=O)NCCc1ccccn1	0	4401	4	5	0.8	12	4
CN=C(NC1CCCCC1)c1ccc(Cl)cc1	-17	2545	9	-20	0.6	11	10
CCCc1nc(-c2cc3cc(C)ccc3[nH]c2=O)no1	-7	4401	-11	8	-3.0	-2	4
CCC(C)NC(=O)c1cc(Sc2nnc(C)s2)nc2ccccc12 (configuration not stated)	/	/	8	-3	0.8	0	-2
O=C(CN1C(=O)NC2(CCCC2)C1=O)NCCc1ccc(Cl)cc1Cl	-9	/	2	/	5.8	10	1

Further records.
SMILES	PrP UTR inh	Bead autofluor	ugtP null kill	BJeLR viability	Sa RN4220 lethal	Mtb hypoxia inh	Mtb hypoxia inh growth
CCc1nc2ccc(C(=O)NCCc3ccc(OC)cc3)cc2nc1CC	0	5579	14	-3	0.1	-3	2
COc1ccc(NC(=O)c2cc([N+](=O)[O-])ccc2N2CCCCC2)cc1OC	-35	3580	2	/	3.4	8	8
COc1ccc(C)cc1NC(=O)C12CCC(C)(C(=O)O1)C2(C)C (configuration not stated)	-28	2440	4	0	2.4	/	/
C(=C1c2ccccc2-c2ccccc21)c1ccncc1	-34	3982	10	/	2.9	10	-5
C=CC[C@@H](CC(=O)N[C@H](CO)Cc1ccccc1)C(=O)N[C@@H](COC(=O)[C@@H](CC=C)Cc1ccc(F)cc1)Cc1ccccc1	-5	4016	0	/	5.0	-4	1
O=C(C1CC1)N1CCc2cc(Br)cc(S(=O)(=O)NCC3COc4ccccc4O3)c21 (configuration not stated)	-16	8431	-5	-17	1.5	11	4
c1cc2n(c1)-c1c(ccc3c1OCO3)CNC2c1ccc2c(c1)OCO2 (configuration not stated)	-9	2406	-11	10	-4.5	/	/
COc1ccc(CSc2nc(C)cc(C)c2C#N)cc1	-16	4088	-2	11	0.6	-1	-1
C=CCNc1nc(Nc2ccc(Cl)cc2)nc(OC)n1	-27	2026	-9	-6	7.4	6	5
CCOC(=O)c1cc(C#N)c(N2CCN(C)CC2)nc1-c1ccccc1	-13	4596	9	-1	-0.3	5	4
CC(Oc1ccc2ccccc2c1)C(=O)NNC(=S)NC(=O)c1ccco1 (configuration not stated)	-17	2700	92*	-1	92*	/	/
CC(C(=O)NC1CCCCC1)N(Cc1ccc(F)cc1)C(=O)c1snc(C(N)=O)c1N (configuration not stated)	-9	5975	-3	-5	3.1	9	3

The last 3 records of the section before come first, to join the parts:
SMILES	PrP UTR inh	Bead autofluor	ugtP null kill	BJeLR viability	Sa RN4220 lethal	Mtb hypoxia inh	Mtb hypoxia inh growth
CCOC(=O)c1cc(C#N)c(N2CCN(C)CC2)nc1-c1ccccc1	-13	4596	9	-1	-0.3	5	4
CC(Oc1ccc2ccccc2c1)C(=O)NNC(=S)NC(=O)c1ccco1 (configuration not stated)	-17	2700	92*	-1	92*	/	/
CC(C(=O)NC1CCCCC1)N(Cc1ccc(F)cc1)C(=O)c1snc(C(N)=O)c1N (configuration not stated)	-9	5975	-3	-5	3.1	9	3
CCC(C)C1NC(=O)C(CC(=O)O)NC(=O)c2cc([N+](=O)[O-])cc(I)c2NCCC(C(N)=O)NC1=O (configuration not stated)	/	/	-3	/	6.4	6	4
CCC(=O)NC(c1cc(Cl)c2ccccc2c1O)C(C)C (configuration not stated)	-20	4740	3	/	13	-1	3
CCCCn1c(SCC(=O)Nc2cc(C)[nH]n2)nc2ccsc2c1=O	-34	18853*	-17	1	4.8	15	11
CC#CCN1c2ccccc2[C@]23CC(C(=O)OC)N(C(=O)NCCBr)C2=NC(C(=O)OC)=C(C(=O)OC)C13 (some centres not stated)	/	/	-2	/	7.1	9	7
Cc1c(S(=O)(=O)N2CC(C)CC(C)C2)c(=O)n(C)c(=O)n1C (configuration not stated)	-5	5718	-3	-6	5.0	17	4
OCCCCNCc1ccc(OCc2ccc(Cl)cc2)cc1	-60	7233	0	-9	-6.3	19	1
Cc1cc(NC(=O)CN2CCCCC2)n(-c2ccccc2)n1	/	/	3	-5	4.9	6	-6
CSc1ccccc1NC(=O)COC(=O)c1ccccc1Cc1ccccc1	-26	2561	7	-3	14	4	-3
Cc1[nH]c(C)c(S(=O)(=O)N2CCN(c3cccc(C(F)(F)F)c3)CC2)c1C(=O)N1CCCCC1	-20	5145	1	1	3.2	-6	0
CCN(CC)S(=O)(=O)c1ccc(C(=O)N2CCN=C2SCc2cccnc2)cc1	-6	4242	3	0	3.7	11	7
COc1ccc(NC(c2ccccc2)P(=O)(Oc2ccccc2)Oc2ccccc2)cc1 (configuration not stated)	-18	2189	2	0	9.2	-3	1
Cc1cc(C)c2c(CC(=O)NC(C)C)coc2c1	-28	4566	10	-7	-5.8	5	10
Clc1ccc2c(c1)C=Nc1c(NCc3ccccc3)ncnc1O2	-9	4041	2	-4	-2.9	/	/
CCN(CC)c1ccc(/C=N/NC(=O)CNC(=O)c2cccnc2)cc1	-5	3641	/	-12	/	/	/
COC(=O)c1ccc(N2CCOCC2)c(NC(=O)c2cccnc2)c1	-20	4870	0	3	1.0	8	-1
COC(=O)c1c(NC(=O)Cn2cnc([N+](=O)[O-])n2)sc2c1CCC(C)C2 (configuration not stated)	-15	9025	57	-1	-7.0	4	-1
COC(=O)C1C(O)CCC2CN3CCc4c([nH]c5ccccc45)C3CC21 (configuration not stated)	-3	4808	3&-4&-2&7&-2&-3	1	6.4&-0.3&2.8&6.9&3.0&0.4	8&-7&2&3&-2	-4&-1&0&10&-1
CC(=O)Nc1nc2cc(N)ccc2s1	-13	3710	3	/	2.3	13	16
CC(=O)NC(=S)Nc1ccc(S(=O)(=O)N(C)Cc2ccccc2)cc1	-37	5077	20	-3	7.2	4	15
COc1cccc(-c2csc(N3CCN(C(=O)Nc4ccc(F)cc4)CC3)n2)c1	-10	3275	-5	6	5.0	11	12
COc1ccc(NC(=O)Cn2ncn3c(cc4ccccc43)c2=O)c(OC)c1OC	-20	7101	2	-1	2.6	0	-9
O=C(C1=C[C@H](C2CCCCC2)C[C@H](OCc2ccc(CO)cc2)O1)N1CCN(Cc2ccccc2)CC1	-12	3950	/	10	/	/	/
Cc1ccc(C(=O)N/C(=C\c2ccco2)C(=O)N2CCSCC2)cc1C	-21	2604	6	-8	2.0	-3	-4
Cc1ccc(S(=O)(=O)NCCCN(C)C)cc1	-27	2433	-3	11	-11	8	0
CSc1ccc(/C=C/C(=O)OCC(=O)N2CCN(S(=O)(=O)c3ccc(C)cc3C)CC2)cc1	-9	2703	5	/	3.5	7	-5
O=C(NCc1cccs1)c1cc(-c2ccccn2)nc2ccc(Br)cc12	-17	3274	-7	-4	1.7	-3	8
COc1ccc(C(=O)Nc2ccc3c(c2)C(=O)c2ccccc2C3=O)cc1OC	-16	2066	-2	4	5.3	-11	5
OC[C@@H]1CCCN1Cc1cn(-c2ccccc2)nc1-c1ccc2c(c1)OCO2	-4	3559	-1	1	2.7	8	-2
O=C(CNC(=S)N(CCCN1CCOCC1)Cc1cccs1)NC1CCCCC1	-4	3133	4	2	8.4	5	3
CCc1nc2ccccc2c2nc3ccccc3n12	-10	2948	-7	0	-5.6	/	/
O=[N+]([O-])c1ccc(OCCOc2ccccc2/C=N/n2cnnc2)cc1	-20	2018	/	7	/	/	/
CC(C)Cn1c(SCC(N)=O)nnc1-c1cccc(S(=O)(=O)N2CCOCC2)c1	-11	2909	5	/	3.4	6	-4
COc1ccc(CNC(=O)CCc2ccc(S(=O)(=O)N3CCCCCC3)cc2)cc1OC	-10	/	-11	/	0.3	7	7
CCOC(=O)c1cc(C)n(S(=O)(=O)c2ccc(C)cc2)c1C	-3	2455	14	-1	2.6	-1	7
COc1ccccc1CNS(=O)(=O)c1c(C)[nH]c(C)c1C(=O)N1CCCC1	-3	4476	12	5	5.2	-2	-9
Cc1cccnc1NC(=O)C1CCN(S(=O)(=O)c2cccs2)CC1	-59	4445	2	14	-2.7	/	/
CCOC(=O)C(CSCC(=O)c1ccc(Cl)cc1)NC(=O)OC(C)(C)C (configuration not stated)	-32	2146	3	4	2.4	/	/
CC(C(=O)c1ccc(-c2ccccc2)cc1)[n+]1cccc(NC(=O)c2ccccc2)c1 (configuration not stated)	-27	4161	/	-4	/	/	/
N/C(=N\OC(=O)c1ccc(Cl)cc1)c1ccc(Cl)cc1	-106	4643	-13	-14	-0.6	/	/
O=C(CCCn1c(=S)[nH]c2ccc(Br)cc2c1=O)N1CCN(c2ccccn2)CC1	1	16819*	3	-2	-0.5	-1	4
Fc1cccc(Cc2noc(CN3CCN(c4cnccn4)CC3)n2)c1	-6	/	11	-6	0.5	5	8
Cc1ccccc1N1CCN(S(=O)(=O)c2nnc(NC(=O)c3ccc(F)cc3)s2)CC1	-9	5410	1	8	5.8	-8	5
CC(=NNC(=O)c1ccc(O)cc1)c1cccc(NC(=O)c2ccccc2C)c1	/	/	2	/	0.1	5	-1
CCO[C@@H]1OC(C(=O)N2CCOCC2)=C[C@H](c2coc3ccccc3c2=O)[C@H]1CCCO	11	2990	/	8	/	/	/

Source: PubChem (several laboratories)
